Vaccinia stage: blocks a specific stage of Vaccinia orthopoxvirus infection; 89,000 tested, 0.01% active; AID 1053133; activity change (mCherry), % (no concentration beside the values); Vaccinia-infected cells, mCherry/Venus stage reporter fluorescence; active compounds read low; some inactives read as strong as hits;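 active = mCherry past -33% and 40 or more points under the early reporter, replicates agreeing; inconclusive = past -33% without that gap or agreement; tested in A549 cells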;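 note: scaled between vehicle wells and reference inhibitor wells; 23 nL library stock went into each well; one replicate is shown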
Vaccinia stage Venus: second read-out of Vaccinia stage, no call of its own (marks repeat the call); activity change (Venus), %; measured here: Venus reporter, other viral stage;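 negative = less Venus signal; first of two replicates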
* marks the source's active call; other numbers are inactive results; ? = inconclusive; · = no result given; & = joins results of further samples. Not all compounds are listed; the hit share may differ from the screen's.

Start of the listing, in advance (14 entries):
SMILES	Vaccinia stage	Vaccinia stage Venus
O=C(C[C@@H]1CC[C@@H]2[C@H](COC[C@@H](O)CN2Cc2ccc3c(c2)OCO3)O1)Nc1ccccc1	-18	-4
CN(C)Cc1cn(CC[C@H]2CC[C@@H](NC(=O)Cc3cccnc3)[C@@H](CO)O2)nn1	3	2
COCC(=O)N1[C@@H](C#N)[C@@H](c2ccccc2C2=CCCC2)[C@@H]1CO	-8	-7
COc1cccc(-c2cnc3c(c2)C(=O)N([C@H](C)CO)C[C@@H](C)[C@@H](CN(C)Cc2ccc(F)cc2)O3)c1	-9	-11
C[C@@H]1CCCCO[C@H](CN(C)S(=O)(=O)c2ccc(F)cc2)[C@H](C)CN([C@@H](C)CO)C(=O)c2cc(NC(=O)Nc3ccc(C(F)(F)F)cc3)ccc2O1	-17	-5
O=C(C1=C[C@H](c2csc3ccccc23)C[C@H](OCCCCO)O1)N1CCCCCCC1	5	19
CCCC#Cc1ccc([C@@H]2[C@H](CO)N3C(=O)CN(C(=O)Nc4cccc(F)c4)C[C@@H]23)cc1	-10	-5
Cc1ccc(S(=O)(=O)Nc2ccc3c(c2)C(=O)N([C@@H](C)CO)C[C@H](C)[C@@H](CN(C)C(=O)Nc2ccccc2)O3)cc1	12	6
Cc1ccc(S(=O)(=O)N(C)C[C@@H]2OCc3ccccc3-c3ccccc3C(=O)N([C@H](C)CO)C[C@@H]2C)cc1	-29	-30
COc1ccc2c3c(n(C)c2c1)[C@@H](CO)N(C(=O)c1cccc(F)c1)CC31CN(CC2CC2)C1	-10	-6
O=C(C[C@H]1C[C@@H]2c3cc(NC(=O)Nc4ccccc4)ccc3O[C@@H]2[C@@H](CO)O1)NCCN1CCCCC1	9	9
O=C(CN1CCOCC1)N[C@@H]1CC[C@@H](CCn2cc(C3CC3)nn2)O[C@H]1CO	-2	1
COc1ccc2c3c([nH]c2c1)[C@H](CO)N(C(=O)c1ccccn1)CC31CN(C(=O)C2CC2)C1	7	9
CO[C@@H]1CN(C)C(=O)c2ccc(NC(C)=O)cc2OC[C@@H](C)N(C(=O)c2cccnc2)C[C@H]1C	7	4

The list itself, repeating the preview:
SMILES	Vaccinia stage	Vaccinia stage Venus
O=C(C[C@@H]1CC[C@@H]2[C@H](COC[C@@H](O)CN2Cc2ccc3c(c2)OCO3)O1)Nc1ccccc1	-18	-4
CN(C)Cc1cn(CC[C@H]2CC[C@@H](NC(=O)Cc3cccnc3)[C@@H](CO)O2)nn1	3	2
COCC(=O)N1[C@@H](C#N)[C@@H](c2ccccc2C2=CCCC2)[C@@H]1CO	-8	-7
COc1cccc(-c2cnc3c(c2)C(=O)N([C@H](C)CO)C[C@@H](C)[C@@H](CN(C)Cc2ccc(F)cc2)O3)c1	-9	-11
C[C@@H]1CCCCO[C@H](CN(C)S(=O)(=O)c2ccc(F)cc2)[C@H](C)CN([C@@H](C)CO)C(=O)c2cc(NC(=O)Nc3ccc(C(F)(F)F)cc3)ccc2O1	-17	-5
O=C(C1=C[C@H](c2csc3ccccc23)C[C@H](OCCCCO)O1)N1CCCCCCC1	5	19
CCCC#Cc1ccc([C@@H]2[C@H](CO)N3C(=O)CN(C(=O)Nc4cccc(F)c4)C[C@@H]23)cc1	-10	-5
Cc1ccc(S(=O)(=O)Nc2ccc3c(c2)C(=O)N([C@@H](C)CO)C[C@H](C)[C@@H](CN(C)C(=O)Nc2ccccc2)O3)cc1	12	6
Cc1ccc(S(=O)(=O)N(C)C[C@@H]2OCc3ccccc3-c3ccccc3C(=O)N([C@H](C)CO)C[C@@H]2C)cc1	-29	-30
COc1ccc2c3c(n(C)c2c1)[C@@H](CO)N(C(=O)c1cccc(F)c1)CC31CN(CC2CC2)C1	-10	-6
O=C(C[C@H]1C[C@@H]2c3cc(NC(=O)Nc4ccccc4)ccc3O[C@@H]2[C@@H](CO)O1)NCCN1CCCCC1	9	9
O=C(CN1CCOCC1)N[C@@H]1CC[C@@H](CCn2cc(C3CC3)nn2)O[C@H]1CO	-2	1
COc1ccc2c3c([nH]c2c1)[C@H](CO)N(C(=O)c1ccccn1)CC31CN(C(=O)C2CC2)C1	7	9
CO[C@@H]1CN(C)C(=O)c2ccc(NC(C)=O)cc2OC[C@@H](C)N(C(=O)c2cccnc2)C[C@H]1C	7	4
Cc1ccc(S(=O)(=O)N(C)C[C@@H]2OCCCC[C@H](C)Oc3ccc(NS(=O)(=O)c4ccc(Cl)cc4)cc3C(=O)N([C@H](C)CO)C[C@H]2C)cc1	-35	-21
C[C@H](NC(=O)[C@@H]1N[C@@H]2c3ccc(-c4cncnc4)c(=O)n3C[C@@H]2[C@H]1CO)c1ccccc1	7	13
COc1ccc(NC(=O)N(C)C[C@H]2OCCCC[C@H](C)Oc3ccc(NC(=O)Cc4ccccc4)cc3C(=O)N([C@@H](C)CO)C[C@@H]2C)cc1	?	·
CC(C)NC(=O)N(C)C[C@H]1Oc2c(NS(=O)(=O)c3ccccc3)cccc2C(=O)N([C@H](C)CO)C[C@H]1C	11	1
O=C(C[C@@H]1CC[C@H](NS(=O)(=O)c2cccc(F)c2)[C@@H](CO)O1)N1CCCCC1	3	-1
C[C@@H]1CN([C@@H](C)CO)C(=O)c2cc(NC(=O)CCCN(C)C)ccc2O[C@@H](C)CCCCO[C@H]1CN(C)Cc1ccncc1	-3	-1
CCC(=O)Nc1ccc2c(c1)OC[C@H](C)N(C(=O)CC)C[C@H](C)[C@@H](OC)CN(C)C2=O	0	0
CC(C)c1cn(CC[C@@H]2CC[C@H](NC(=O)C3CC3)[C@@H](CO)O2)nn1	9	7
O=C(c1cnccn1)N1CC(=O)N2[C@H](CO)[C@@H](c3ccc(-c4ccc(F)cc4)cc3)[C@H]2C1	-17	-13
C[C@H](CO)N1C[C@H](C)[C@H](CN(C)Cc2ccc(C(F)(F)F)cc2)Oc2c(NS(=O)(=O)c3cccs3)cccc2C1=O	-20	-5
CC(=O)N(C)C[C@@H]1Oc2ncc(-c3cccnc3)cc2C(=O)N([C@@H](C)CO)C[C@@H]1C	22	4
COCC(=O)N(C)C[C@@H]1Oc2cc(C#CC3CC3)ccc2S(=O)(=O)N([C@H](C)CO)C[C@H]1C	15	15
CO[C@@H]1CN(C)C(=O)c2cc(NC(=O)c3cnccn3)ccc2OC[C@H](C)N(CCc2ccccc2)C[C@H]1C	4	5
C[C@H](CO)N1C[C@H](C)[C@H](CN(C)C(=O)Nc2ccc(C(F)(F)F)cc2)Oc2c(NS(=O)(=O)c3ccccc3)cccc2C1=O	-8	-9
C[C@H]1CN([C@@H](C)CO)C(=O)c2c(c3ccccc3n2C)-c2ccccc2CO[C@H]1CN(C)S(=O)(=O)Cc1ccccc1	24	6
CC(C)NC(=O)Nc1cccc2c1O[C@@H](CN(C)Cc1ccc(Cl)c(Cl)c1)[C@H](C)CN([C@H](C)CO)C2=O	?	·
O=C(C[C@H]1C=C[C@@H](NC(=O)C2CCC2)[C@H](CO)O1)NCC1CC1	-1	-1
CCCC(=O)Nc1ccc2c(c1)OC[C@H](C)N(Cc1ccc(-c3ccccn3)cc1)C[C@@H](C)[C@@H](OC)CN(C)C2=O	-18	-26
COc1ccc(-c2cnc3c(c2)C(=O)N([C@@H](C)CO)C[C@H](C)[C@@H](CN(C)C)O3)cc1	11	9
COc1cccc(S(=O)(=O)N2[C@@H]3CNC[C@H]2C3c2ccc(/C=C/c3ccccc3)cc2)c1 (stereo not given in full)	10&-6	13&4
O=C(Nc1cc(F)ccc1F)N1CCCCN2[C@H](CO)[C@@H](c3ccc(-c4cncnc4)cc3)[C@@H]2C1	38	10
C[C@@H]1CN([C@H](C)CO)C(=O)CCCn2cc(nn2)CO[C@H]1CN(C)Cc1ccc2cccnc2c1	6	6
C[C@H]1CN([C@@H](C)CO)C(=O)Cc2cc(NC(=O)NC3CCCCC3)ccc2O[C@H]1CN(C)C	7	2
C[C@@H]1CN([C@H](C)CO)C(=O)Cc2cc(NC(=O)NC3CCCCC3)ccc2O[C@H]1CN(C)Cc1ccc2c(c1)OCO2	-20	-25
C[C@@H]1CN([C@H](C)CO)C(=O)Cc2cc(NS(=O)(=O)c3cccs3)ccc2O[C@@H]1CN(C)C(=O)Nc1ccc(F)cc1	27	10
C[C@H]1CN([C@@H](C)CO)C(=O)Cc2cc(NC(=O)C3CCCCC3)ccc2O[C@H]1CN(C)S(C)(=O)=O	2	-3
CC(C)NC(=O)Nc1ccc2c(c1)C(=O)N([C@@H](C)CO)C[C@@H](C)[C@H](CN(C)C(=O)CCC(F)(F)F)OCCCC[C@H](C)O2	18	8
Cc1ccc(S(=O)(=O)N(C)C[C@H]2Oc3ccc(NC(=O)Nc4ccc(F)cc4)cc3CC(=O)N([C@H](C)CO)C[C@H]2C)cc1	?	·
O=C(C[C@H]1C=C[C@H](NC(=O)Nc2ccc(C(F)(F)F)cc2)[C@H](CO)O1)NCCN1CCCC1	-12	-8
Cc1noc(C)c1S(=O)(=O)Nc1ccc2c(c1)CC(=O)N([C@@H](C)CO)C[C@@H](C)[C@H](CN(C)Cc1ccc(-c3ccccc3)cc1)O2	?	·
COc1ccc(NC(=O)N[C@H]2CC[C@@H](CCn3cc(-c4ccccc4)nn3)O[C@@H]2CO)cc1	-4	-11
C[C@@H](NC(=O)C[C@H]1C=C[C@@H](NC(=O)Nc2ccc3c(c2)OCO3)[C@@H](CO)O1)c1ccccc1	5	12
CO[C@@H]1CN(C)C(=O)c2cc(NC(=O)C3CCCCC3)ccc2OC[C@H](C)N(Cc2nccs2)C[C@H]1C	-2	3
Cc1ccc(-c2ccc(C3[C@H]4CNC[C@@H]3N4S(=O)(=O)c3ccccc3)cc2)cc1 (stereo not given in full)	8&-3	10&0
CN(C)C(=O)C[C@@H]1C[C@@H]2c3cc(NC(=O)C4CCC4)ccc3O[C@@H]2[C@H](CO)O1	6	6
O=C(N[C@@H]1CC[C@H](CCn2cc(-c3ccccn3)nn2)O[C@H]1CO)c1ccncc1	4	-2
COc1cccc(S(=O)(=O)N(C)C[C@H]2Oc3ncc(Br)cc3C(=O)N([C@@H](C)CO)C[C@@H]2C)c1	-11	-7
C[C@@H]1CN([C@@H](C)CO)C(=O)CCCn2cc(nn2)CO[C@H]1CN(C)CC1CCCC1	14	7
Cc1noc(C)c1NC(=O)N(C)C[C@H]1OCCCC[C@@H](C)Oc2ccc(NS(=O)(=O)c3ccccc3)cc2C(=O)N([C@@H](C)CO)C[C@@H]1C	23	7
C[C@@H]1CN([C@@H](C)CO)C(=O)Cc2cc(NC(=O)Nc3ccc4c(c3)OCO4)ccc2O[C@@H]1CN(C)Cc1ccc(Cl)c(Cl)c1	?	·
N#C[C@@H]1[C@@H](c2ccc(-c3cccc(F)c3)cc2)[C@H](CO)N1C(=O)c1cccnc1	11	2
C[C@H]1CN([C@@H](C)CO)C(=O)CCCn2nncc2CO[C@@H]1CN(C)C(=O)Nc1cccc2ccccc12	4	14
Cc1noc(C)c1NC(=O)N(C)C[C@H]1Oc2ccc(NC(=O)Cc3cn(C)c4ccccc34)cc2CC(=O)N([C@@H](C)CO)C[C@H]1C	21	6
CN1C(=O)c2cc(NC(=O)C3CCCC3)ccc2OC[C@H]2O[C@H](CC(=O)Nc3ccccc3)CC[C@H]21	4	-7
COc1cccc(S(=O)(=O)N[C@H]2C=C[C@@H](CC(=O)NC3Cc4ccccc4C3)O[C@H]2CO)c1	-5	-8
CC(=O)N(C)C[C@H]1Oc2cc(C#Cc3ccc(F)cc3)ccc2S(=O)(=O)N([C@H](C)CO)C[C@H]1C	?	·

(listing goes on)
SMILES	Vaccinia stage	Vaccinia stage Venus
O=C(N[C@@H]1CC[C@@H](CC(=O)N2CCOCC2)O[C@@H]1CO)c1ccccn1	10	4
C[C@@H]1CCCCO[C@H](CN(C)Cc2ccncc2)[C@@H](C)CN([C@H](C)CO)C(=O)c2cc(NC(=O)Nc3ccccc3)ccc2O1	19	1
C/C=C/c1cnc2c(c1)C(=O)N([C@@H](C)CO)C[C@@H](C)[C@H](CN(C)S(=O)(=O)c1ccc(C)cc1)O2	-9	-6
C[C@H](CO)N1C[C@H](C)[C@H](CN(C)Cc2ccccn2)Oc2cc(-c3ccncc3)ccc2S1(=O)=O	-3	-3
C[C@@H]1CN([C@@H](C)CO)C(=O)c2cc(NC(=O)C3CC3)ccc2O[C@H]1CN(C)S(=O)(=O)c1cn(C)cn1	25	17
C[C@@H]1CN([C@@H](C)CO)C(=O)c2cc(NS(=O)(=O)c3cccs3)ccc2O[C@@H](C)CCCCO[C@@H]1CN(C)C(=O)NC1CCCCC1	17	9
O=C(Nc1ccc(F)cc1)N1CCCCN2[C@H](C1)[C@H](c1ccc(-c3ccccc3F)cc1)[C@@H]2CO	?	·
CO[C@H]1CN(C)C(=O)c2cc(NC(=O)C3CC3)ccc2OC[C@H](C)N(C(=O)NC(C)C)C[C@@H]1C	14	8
C[C@@H]1CN([C@H](C)CO)S(=O)(=O)c2ccc(-c3cccc(C(=O)N(C)C)c3)cc2O[C@H]1CN(C)C	3	8
C[C@H]1CCCCO[C@@H](CN(C)Cc2ccncc2)[C@@H](C)CN([C@@H](C)CO)C(=O)c2cc(NS(=O)(=O)c3ccccc3)ccc2O1	4	5
Cc1ccc(S(=O)(=O)N(C)C[C@@H]2OCc3ccccc3-c3ccccc3C(=O)N([C@H](C)CO)C[C@H]2C)cc1	-6	1
CCCC(=O)Nc1ccc2c(c1)C(=O)N(C)C[C@@H](OC)[C@H](C)CN(Cc1ccccn1)[C@H](C)CO2	10	8
C[C@@H]1CCCCO[C@@H](CN(C)C(=O)Cc2ccccc2)[C@@H](C)CN([C@H](C)CO)C(=O)c2cc(NC(=O)c3ccccc3)ccc2O1	23	8
C[C@@H]1CN([C@@H](C)CO)C(=O)c2cc(C#Cc3ccncc3)cnc2O[C@H]1CN(C)CC1CCOCC1	7	7
C[C@@H]1CN([C@@H](C)CO)C(=O)c2cccc(NC(=O)Nc3ccc(F)cc3)c2O[C@H]1CN(C)CC1CC1	-4	-12
CCNC(=O)C[C@@H]1CC[C@@H]2[C@@H](COc3ccc(NC(=O)c4cccc(OC)c4)cc3C(=O)N2C)O1	20	9
